VACV Venus inh: inhibitors of vaccinia virus (Venus reporter); hit rate 0.46% among 330,000; Vaccinia virus Venus reporter expression, fluorescence; Potency, µM (doses to about 36.5 µM), without a hit: at the top dose activity change, negative = inhibition, usual class: inhibitors; active means well fitted inhibition curve with a large enough effect; inconclusive means small, poorly fitted or top-dose-only effect; inactive means no such curve, though single readings can be large or run the other way; tested in A549 cells; further: nearly all actives have a fitted effect of over 30% in size; inactives centre near -10
VACV mCherry inh: vaccinia inhibition (mCherry reporter) | Vaccinia virus mCherry reporter infection, fluorescence; about a quarter of the inactives have no number | Potency, µM (highest dose often 36.5 µM), without a hit: at the top dose activity change, negative = inhibition, hits mostly inhibitors | hit rate 0.63% among 310,000 | AID 720579; active = well fitted inhibition curve with a large enough effect; inconclusive = small, poorly fitted or top-dose-only effect; inactive = no such curve, though single readings can be large or run the other way; tested in A549 cells; further: nearly all actives have a fitted effect of over 35% in size; inactives centre near -10
An asterisk follows results filed as active; i = inactive; ? = inconclusive; . = no result given; [ ] = remark or other dose. On the % scale 0 is the no-effect control and ±100 the full control effect; potency means the concentration at half of the fitted maximal effect. No enrichment for hits (roughly 0.82% active in at least one column).

molecule | VACV Venus inh | VACV mCherry inh
Cn1ncc2c(Nc3cccc(Cl)c3)nc(Nc3cccc(Cl)c3)nc21 | -29.7% | ?
CC(CCc1ccccc1)NC(=O)c1cccs1 (stereo unspecified) | -15.4% | i
O=C(NNC(=O)c1ccccc1-n1cccc1)c1cccnc1 | -5.6% | i
CC1CCN(CCCNC(=O)CN2C(=O)CSc3ccc(S(=O)(=O)N4CCOCC4)cc32)CC1 | -11.0% | -4.9%
S=C(NCCCN1CCOCC1)N1CCN(c2ccccc2)CC1 | 3.6% | i
Cc1cccc2cc(CN(C(=O)c3cccc([N+](=O)[O-])c3)C(C)C)c(=O)[nH]c12 | 3.1% | -6.0%
C=CCn1c(CNC(=O)c2ccco2)nnc1SCC(=O)N1c2ccccc2Sc2ccccc21 | -9.0% | -14.8%
N#CCOC(=O)/C=C/c1ccc2c(c1)OCO2 | 4.6% | i
O=C1CC(/C=C/c2cccnc2)=Nc2ccccc2N1 | ? | ?
COc1cc(-c2c(-c3ccc4c(c3)OCO4)noc2-c2ccsc2)cc(OC)c1OC | -4.0% | -10.1%
Cc1cc(C)c(NC(=O)/C=C\C(=O)O)c(Cl)c1 | -2.6% | -0.1%
COc1ccc(C2/C=C\CN(C(=O)Nc3ccc(C(F)(F)F)cc3)CC(=O)N2Cc2ccc(F)cc2)cc1 (stereo unspecified) | ? | -21.2%
COc1ccc(NC(=O)CSc2nccn2-c2ccccc2)cc1 | -16.1% | .
COC(=O)c1c(C)[nH]c(C(=O)OC(C)C(=O)N(C)C2CCCCC2)c1C (stereo unspecified) | -8.3% | i
COc1ccc(NC(=S)N2CCC(NC(=O)c3cccc(C)c3)CC2)cc1 | 2.1% | -12.6%
COc1cc(NC(=O)c2cc(S(=O)(=O)N3CCCCC3)c[nH]2)cc(OC)c1 | -9.3% | -7.2%
O=C(NCc1ccccn1)c1ccccc1OCc1ccc(F)cc1 | -9.0% | i
Cn1ccnc1SCCNC(=O)CCc1nnc(CCCCc2ccccc2)o1 | -11.5% | -2.6%
COc1ccc(-c2nc(CN3CCCCC3c3nccn3C)c(C)o2)c(C)c1C (stereo unspecified) | -17.9% | i
Cc1sc2ncnc(NCC(O)c3ccccc3)c2c1C (stereo unspecified) | -14.8% | i

Next structures
molecule | VACV Venus inh | VACV mCherry inh
O=C(NCCCn1ccnc1)c1ccc(S(=O)(=O)N2CCOCC2)cc1 | -8.4% | -15.3%
CC(C)(C)c1ccc(C(=O)C2CCCN(C3CCC3)C2)cc1 (stereo unspecified) | -15.8% | -12.2%
COc1ccc(OC)c(S(=O)(=O)N/N=C\c2cn(CC(N)=O)c3ccccc23)c1 | -27.6% | -24.4%
O=C(O)c1ccc(/C=N/NC(=O)c2cc(-c3cccs3)nc3ccccc23)cc1 | -10.4% | i
NC(=O)CCn1c(C(=O)c2cc(Cl)c(N)c(Cl)c2)c2ccccc2[n+]1[O-] | -13.9% | ?
CN(Cc1ccccc1)C(=O)COC(=O)COc1ccc(Cl)cc1 | -2.8% | i
CC(=O)Nc1ccc(S(=O)(=O)NCc2nc(-c3cccc(C)c3)no2)cc1 | -10.6% | i
CCNc1nc(CN2CCOCC2)nc2sc3c(c12)CCC3 | -29.1% | .
CCOC(=O)Cn1c(=O)oc2cc(S(=O)(=O)NCc3cccs3)ccc21 | -15.3% | -4.2%
CCCCNC(=O)C1CCC(CNc2nc(=S)[nH]c3ccccc23)CC1 (stereo unspecified) | -5.3% | i
CCCOc1ccc(N2C(=O)CC(NCc3ccncc3)C2=O)cc1 (stereo unspecified) | -12.2% | i
COc1ccc(/C(N)=N/OC(=O)c2ccco2)cc1OC | -3.1% | 4.8%
FC(F)(F)c1cccc(Nc2c3c(nc4ccc(Cl)cc24)CCC3)c1 | -17.4%[7.34 µM] | -21.1%[7.34 µM]
CCC(CC)c1nc2cc(OC)c(OC)cc2c(=O)o1 | -3.4% | i
Cc1nc(N2CCCC2)ncc1C(=O)Nc1ccccc1 | -5.9% | -0.1%
COc1ccc(-c2c[n+]3c(n2-c2ccccc2)SCC3)cc1 | -16.6% | i
N#CCCn1cc(C(=O)O)c(-c2cccs2)n1 | -11.5% | -27.3%
Cc1ccc(CNC(=O)CSCc2ccccc2C)cc1 | -5.8% | -3.0%
CC1(C(=O)NS(=O)(=O)c2ccc(F)cc2F)CCN1C(=O)CCc1ccc(Cl)cc1Cl (stereo unspecified) | 3.7% | 40.3%[activator]
O=C(Nc1cnccn1)c1ccc(Cl)cc1 | -5.6% | i

The results go on.
molecule | VACV Venus inh | VACV mCherry inh
Oc1c(Br)cc(/C=N/NC(=S)NCC2CCCO2)cc1Br (stereo unspecified) | -22.5% | ?
O=C1CC(c2ccc(Br)cc2)c2c(ccc3ccccc23)N1 (stereo unspecified) | -11.6% | -24.0%
CCOC(=O)c1c(NC(=O)CSc2cn(CCNC(=O)c3ccc(OC)c(OC)c3)c3ccccc23)sc2c1CCCC2 | -23.6% | -17.5%
O=C(CNC(=O)c1ccc(Br)cc1)N/N=C/c1ccc[nH]1 | -13.6% | i
COc1ccc(C(=O)NCCc2cn3ccccc3n2)cc1 | -10.5% | -10.9%
COc1ccc(OC)c(CN2C(=O)c3ccccc3C2c2nnnn2-c2ccc3c(c2)OCCO3)c1 (stereo unspecified) | ? | -22.4%
CCc1ccc(CN(C)CCc2ccccn2)cc1 | -7.2% | -11.3%
C/C(CCc1ccc2c(c1)OCO2)=N\N=C(/N)SC1CC(=O)N(c2ccc(Cl)cc2)C1=O (stereo unspecified) | -28.5% | ?
CC(Oc1ccccc1)C(=O)N=Nc1c(O)[nH]c2ccc([N+](=O)[O-])cc12 (stereo unspecified) | -20.8% | -11.9%
O=C1c2ccccc2C(=O)N1CCc1ccccc1 | -10.8% | ?
Cc1ccc(O)c(C2=Nc3ccccc3N=C(c3ccc([N+](=O)[O-])cc3)C2)c1 | -6.4% | -8.7%
Brc1ccc2[nH]ncc2c1 | -6.5% | -12.9%
O=C(C(=Cc1ccc(F)cc1)c1ccccc1)c1ccc(O)cc1 | ? | -8.5%
Cc1cccc(-c2nsc(SCC(=O)c3ccc(Cl)cc3)n2)c1 | -18.8% | i
CC(=O)N1CCN(C(=O)c2ccc(NS(=O)(=O)c3cc(C)ccc3C)cc2)CC1 | -12.9% | i
COC(=O)C[C@H]1C[C@H]2c3cc(NS(=O)(=O)c4cccc(OC)c4)ccc3O[C@H]2[C@@H](CO)O1 | -11.9% | i
N#Cc1cccc(-n2nnnc2-c2ccc3c(c2)OCO3)c1 | -3.3% | -0.2%
O=C(Nc1ccc(Br)cc1)N1C[C@H]2C[C@@H](C1)c1cccc(=O)n1C2 | -0.6% | 5.4%
CCOc1ccccc1OCC(=O)Nc1cc(C)on1 | 0.8% | -9.8%
Cc1cc(NC(=O)CSc2nncn2-c2ccccc2)no1 | -1.5% | i

Carrying on:
molecule | VACV Venus inh | VACV mCherry inh
Cc1sc(NC(=O)c2cccc(N3C(=O)CCC3=O)c2)nc1-c1ccccc1 | -17.7% | -3.2%
O=C1N=C(c2ccccc2)S/C1=C\c1cccs1 | -7.9% | i
Cc1c(Cl)cccc1NC(=O)N1CCN(C(=O)c2nsc3ccccc23)CC1 | -9.4% | -19.7%
CCn1c(=NC(=O)c2ccc(S(=O)(=O)N3CCOCC3)cc2)sc2cccc(OC)c21 | ? | ?
CN(C)C(CNC(=O)c1cc(Br)ccc1Cl)c1ccco1 (stereo unspecified) | 15.0% | -21.7%
O=C(COC(=O)/C=C/c1ccccc1)NC(=O)NC1CCCCC1 | -0.8% | i
CCOc1ccc(NC(=O)CN(C)C(=O)Cc2ccc3c(c2)OCCO3)cc1OCC | -9.3% | -10.7%
c1ccc(-c2noc(CN3CCN(c4cnccn4)CC3)n2)cc1 | -2.1% | i
CC(=O)Oc1ccc(CC(C(=O)O)N2C(=O)c3ccccc3C2=O)cc1 (stereo unspecified) | -4.2% | -3.8%
COC(=O)c1ccc(CSc2nncn2N)cc1 | -2.4% | -10.0%
COc1ccc2c(CC(=O)NCc3cccs3)coc2c1 | -18.1% | -12.8%
COc1ccc(S(=O)(=O)N2CCOCC2)cc1NC(=O)CCCSc1ccccc1 | -6.0% | -14.4%
COc1ccc2oc(=O)cc(CN3CCN(C(=O)c4ccccc4F)CC3)c2c1 | -14.5% | -15.9%
O=C(CN1CCN(Cc2ccccc2)C1=O)NCc1cccs1 | -1.2% | i
O=C(CSc1nc(=O)n(CCCN2CCOCC2)c2c1CCC2)Nc1cccc(F)c1 | -10.0% | -19.8%
CCC(=O)NCCc1nc2ccccc2n1CC | -20.1% | i
Cc1ccc(C)c(NC(=O)Cn2c(=O)n(CC3CCCO3)c(=O)c3ccccc32)c1 (stereo unspecified) | -4.9% | -6.4%
CC(=O)c1cn(CC(=O)NCC2CCCO2)c2ccccc12 (stereo unspecified) | ? | -11.5%
Cc1cc(C)cc(N(C(=O)c2csnn2)C(C(=O)NC2CCCCC2)c2cccnc2)c1 (stereo unspecified) | -10.8% | -6.9%
COc1cc(/C=N/NC(=S)N/N=C/c2cc(OC)c(OC)c(OC)c2)cc(OC)c1OC | -15.8% | i

The list continues:
molecule | VACV Venus inh | VACV mCherry inh
CC(C(=O)Nc1ccccc1-c1ccccc1)N1CCOCC1 (stereo unspecified) | -5.2% | i
NS(=O)(=O)c1ccc(NC(=O)COc2ncnc3sccc23)cc1 | -3.2% | -28.5%
Cn1c(=O)c2c(nc(NCC(O)CO)n2CCc2ccccc2)n(C)c1=O (stereo unspecified) | 11.1% | .
COc1ccc(CCNC(=O)C2(C)CCC(=O)N2CCC(C)C)cc1OC (stereo unspecified) | -13.8% | -11.8%
NC(=O)c1ccc(NC(=O)CN2CCN(C(=O)c3ccco3)CC2)cc1 | 2.9%[7.34 µM] | -8.7%[7.34 µM]
CSc1nnc(CSc2cc(C)nc(N(C)C)n2)o1 | 0.0% | -4.7%
CCCC(=O)Nc1cccc(NC(=S)NC(=O)C(C)Oc2ccc(Cl)cc2Cl)c1 (stereo unspecified) | -12.7% | -15.9%
CC1=C(c2ccc(C)c(C)c2)S(=O)(=O)N=C1N1CCN(c2cccc(C(F)(F)F)c2)CC1 | -7.9% | -8.7%
C=CCN(c1ccccc1)S(=O)(=O)c1ccc(Cl)c(C(=O)OCC(=O)NCCCN2CCCC2=O)c1 | -8.1% | i
CCN1CCN(Cc2ccc(NC(=O)c3cc(NC(=O)c4nccnc4N)cc(OC)c3)cc2C(F)(F)F)CC1 | -15.8% | -1.1%
Cc1nn(CCCC(=O)Nc2cccc(C(F)(F)F)c2)c(=O)c2nn(-c3ccccc3)c(C)c12 | -12.5% | -19.2%
Cc1ccc(C(=O)N/C(=C/c2ccco2)C(=O)NCCc2c[nH]c3ccccc23)cc1 | -18.4% | -10.3%
COC(CNC(=O)c1ccc(CS(=O)(=O)c2ccc(Br)cc2)o1)OC | -24.6% | i
O=c1c2ccccc2[nH]c(=S)n1C1CCCCC1 | -21.4% | .
Cc1cnc(C)c(N(C)NC(=S)Nc2ccccc2)n1 | -13.9% | -13.5%
O=C(/C=C/c1cccc(Br)c1)NCc1ccncc1 | -23.1% | i
C=CCSc1nc(-c2ccccc2)c2cc(Cl)ccc2n1 | -13.9% | .
CCOc1cccc(C(=O)Nc2ccc3[nH]ncc3c2)c1 | -7.8% | -17.6%
CCOC(=O)c1c(C)[nH]c(CCC(=O)NCc2ccc(N(C)C)cc2)c1C | -5.1% | -11.4%
CCN1CCN(Cc2nnnn2C(C)(C)C)CC1 | -15.6% | .

(further entries)
molecule | VACV Venus inh | VACV mCherry inh
CN(C)CCCN(C(=O)c1nc2ccccc2s1)c1nc2ccc(F)cc2s1 | 4.0% | -10.7%
COc1ccccc1CNC(=O)COC(=O)CCN1C(=O)C2CC=CCC2C1=O (stereo unspecified) | -10.3% | i
Cc1cc(Br)ccc1NC(=O)CSc1c2c(nc3ccccc13)CCC2 | -23.4% | -22.7%
C/C(=C\C1CCCCC1)C(NC(=O)c1ccc(C(F)(F)F)cc1)c1ccc(-c2ccccc2)cc1 (stereo unspecified) | -10.3% | i
CCCc1nn2c(=O)cc(COC(=O)c3ccc(NC(=O)COc4ccccc4)cc3)nc2s1 | -13.7% | 0.0%
O=S(=O)(NCCC1=CCCCC1)c1ccc(Br)cc1 | -13.5% | -8.6%
Nn1c(SCC(=O)Nc2ccc3c(c2)CCC3)nnc1C1CC1 | -6.9% | -13.4%
O=C(CCc1c[nH]c2ccccc12)NCCc1ccc(O)cc1 | -9.8% | -16.8%
S=C(Nc1ccccc1)N1CCn2cccc2C1c1cccnc1 (stereo unspecified) | -8.5% | i
Cc1[nH]nc(-c2ccc(OCc3cnn(-c4ccccc4)c3)cc2O)c1Oc1ccccc1F | ? | .
CCCNC(=O)Cn1c(=O)oc2cc(S(=O)(=O)N3CCCC3)ccc21 | -11.0% | 6.2%
CC(=O)Nc1ccc(S(=O)(=O)Nc2nc3n(n2)C(c2ccccc2)C=C(c2ccc(Cl)cc2)N3)cc1 (stereo unspecified) | -4.6%[7.34 µM] | 2.2%[7.34 µM]
Cn1cc(Cl)c(C(=O)Nc2nccs2)n1 | -2.0% | i

Quoted at random: two entries already listed, in no set order.
molecule | VACV Venus inh | VACV mCherry inh
O=S(=O)(NCCC1=CCCCC1)c1ccc(Br)cc1 | -13.5% | -8.6%
COc1ccccc1CNC(=O)COC(=O)CCN1C(=O)C2CC=CCC2C1=O (stereo unspecified) | -10.3% | i

From PubChem
